HCMV NEC inh: inhibitors of HCMV UL50-UL53 nuclear egress complex interaction; HTRF UL50-UL53 interaction, normalized percent inhibition; inhibition, % (test concentration not listed); hit rate 0.15% among 190,000;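 active means both replicates at 50% or more, plus weaker picks with an unusually low signal ratio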;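 further: stock transfer was 100 nL into about 20 µL; 0% = negative control wells and 100% = wells with untagged competitor protein; inactives centre near -12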
Sa growth 42C: blocks Staphylococcus aureus growth | S. aureus RN4220 growth, OD600, 20 h, 42 °C; hits give low values | relative growth, % (no concentration beside the values) | hit rate 0.53% among 170,000 | AID 720641;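 active means growth at 42 °C up to 50% and 20 or more points under that at 30 °C, or under 10% at both; inconclusive means no clear call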;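 further: 300 nL library stock went into each well; scaled to the means of positive and negative controls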
GIV Gai3 FP: GIV-Galpha-i interaction inhibition. percent of control (FP), % (concentration not given with the values). Galpha-i3/FITC-GIV peptide fluorescence polarization, 90 min; hits give low values; scaled: aluminum fluoride 0%, vehicle 100%. AID 1224905. hit rate 0.42% among 210,000;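 active means replicate mean at 85% of control or lower, very high polarization wells dropped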;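 further: wells of about 15 µL received 100 nL stock; the first replicate is given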
Target sequence (P08753 whole entry, looked up): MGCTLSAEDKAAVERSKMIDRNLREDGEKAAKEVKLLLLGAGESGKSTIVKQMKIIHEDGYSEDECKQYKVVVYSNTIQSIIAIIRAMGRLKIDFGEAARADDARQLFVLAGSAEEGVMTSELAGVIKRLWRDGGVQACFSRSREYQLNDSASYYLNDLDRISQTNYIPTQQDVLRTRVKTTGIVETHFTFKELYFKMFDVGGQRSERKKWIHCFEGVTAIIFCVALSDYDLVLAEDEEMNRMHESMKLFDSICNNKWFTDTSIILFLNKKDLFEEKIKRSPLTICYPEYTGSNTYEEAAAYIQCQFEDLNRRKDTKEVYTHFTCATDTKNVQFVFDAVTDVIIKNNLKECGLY
Sa growth 42C second temp: further read-out of Sa growth 42C, marked with its call; relative growth, %; measured here: growth at 30 °C;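 optical density after 20 h as mean of two plates; 100% = untreated growth and lower means inhibition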
Numbers without * were called inactive; u = inconclusive; x = not tested or not shown; & = joins results of further samples.

SMILES	HCMV NEC inh	Sa growth 42C	Sa growth 42C second temp	GIV Gai3 FP
Cc1ccc(OCC(=O)N(Cc2ccco2)c2ccccn2)cc1	-26.4	103.2	83.5	102.9
O=C(CSc1nc2ccccc2n1Cc1ccccc1)Nc1ccccn1	-4.3	102.3	82.8	101.9
CC1CCN(c2nn3c(=O)c(C(=O)NC(C)C)cnc3s2)CC1	x	90.5	87.4	96.1
Cc1nn(-c2ccccc2)c2c1-c1sc(C(=O)NCc3ccccn3)cc1CC2	-39.0	x	x	105.7
O=C(NCc1nc(-c2ccccc2)no1)c1ccccc1	x	87.8	95.3	100.7
CCn1c(=O)n(CC)c2cc(N3CCCC3)c(NC(=O)c3sc4ccccc4c3Cl)cc21	-32.8	x	x	101.6
O=c1c2sc3ccccc3c2n(Cc2ccc(F)cc2)c(=O)n1Cc1ccccn1	-8.2	x	x	105.8
Cc1ccc(C)c(NC(=O)C(=O)NCC(c2cccnc2)N2CCN(c3ccc(F)cc3)CC2)c1 (configuration not stated)	-2.6	80.0	93.8	104.5
CN1CCN(S(=O)(=O)c2ccc(NC(=O)C(C)(C)C)cc2)CC1	9.3	103.7	97.4	110.1
N/C(=N\S(=O)(=O)c1ccccc1)c1ccccc1	-3.3	90.7	88.7	x
CCOc1ccc(-c2noc(CCCC(=O)Nc3cccnc3)n2)cc1OC	2.9	x	x	100.7
CSc1nc(N/C=C(\C#N)S(=O)(=O)c2ccccc2Cl)nc(N(C)C)n1	-26.5	101.7	96.3	111.2
CCC(C)N=C1NC=NC2SC(C3COc4ccccc4O3)=CC12 (configuration not stated)	-7.8	72.5	66.2	107.5
COc1ccc(CN2CCc3nc(SCC(=O)Nc4cc(C)cc(C)c4)[nH]c(=O)c3C2)cc1	-13.4	121.3	88.7	101.6
CN(C(=O)c1ccc(-n2cnnn2)cc1)C1CC(C)(C)NC(C)(C)C1	7.0	83.6	95.3	x
O=C(O)c1cccnc1SC1CC(=O)N(c2ccccc2)C1=O (configuration not stated)	-7.9	x	x	101.9
O=C(NC1(c2ccccc2)CC1)N1CCN(c2ccccc2)CC1	-0.7	75.2	94.7	x
CSc1nn(Cc2cccc(C)c2)c(N)c1S(=O)(=O)c1ccccc1	x	139.9	95.5	108.2
c1nc2n(n1)C1(CCCCC1)C1=C(CCCC1)N2	-3.9	x	x	111.8
CN(C)C(=O)c1ccc(I)cc1	-11.6	105.8	94.1	95.4
COc1ccc(C(=O)Nc2ccc(-c3cc4ccccc4oc3=O)c(C)c2)cc1Br	-25.2	99.3	92.6	102.4
COCCn1c(=NC(=O)CSCC(=O)N2CCCc3ccccc32)sc2cc(OC)ccc21	x	92.7	69.9	99.9
Cc1cccc(N2CCN(Cc3c(O)ccc4ccccc34)CC2C)c1 (configuration not stated)	-0.1	109.8	101.5	x
CC1(c2ccc3c(c2)OCCO3)NC(=O)N(CC#N)C1=O (configuration not stated)	-8.4	100.7	88.1	x
CCCC(=O)NC(=S)Nc1cccc(-c2nc3cc(C)cc(C)c3o2)c1C	-8.4	119.8	90.0	94.4
Cc1oc(-c2ccccc2)nc1CSc1nc(-c2ccccc2)cc(=O)[nH]1	-13.2	x	x	106.2
COc1cccc(NC(=O)CN(C)S(=O)(=O)c2ccc3c(c2)C(=O)NCC(=O)N3)c1	6.7	x	x	112.8
CCc1cccc2c(-c3ccccc3)nc(SCC(=O)Nc3ccc(OC)cc3)nc12	11.6	u	x	98.7
COC(=O)C(NC(=O)CC(C)C)(Nc1nc2c(s1)CCCC2)C(F)(F)F (configuration not stated)	22.5	89.9	98.3	107.3
CC(C)n1c(CN2CCOCC2)nc2ccccc21	2.8	x	x	98.1

Quoted from the listing.
For HCMV NEC inh, Cc1cccc(N2CCN(Cc3c(O)ccc4ccccc34)CC2C)c1 (configuration not stated) reads -0.1
For GIV Gai3 FP, c1nc2n(n1)C1(CCCCC1)C1=C(CCCC1)N2 reads 111.8

(next part)
SMILES	HCMV NEC inh	Sa growth 42C	Sa growth 42C second temp	GIV Gai3 FP
COc1ccc(N2CCN(C3CC(=O)N(c4cccc(Cl)c4)C3=O)CC2)cc1 (configuration not stated)	6.5	x	x	95.1
Cc1csc2nc(-c3cccc(NC(=O)c4c(F)cccc4F)c3)cn12	x	143.7	105.8	103.5
CCOc1ccc(NC(=S)NC(C)(C)CC)cc1	-25.3	103.6	88.0	104.6
CCNc1ccc2oc3ccccc3c2c1	-25.9	77.6	82.2	x
O=C(c1cc(-c2ccc(Br)cc2)n[nH]1)N1CCN(c2ccc(N3CCOCC3)nn2)CC1	-11.3	x	x	100.3
CC(C)Cn1c(=O)c2ccccc2n2c(CCC(=O)NC(C)c3ccccc3)nnc12 (configuration not stated)	-31.5	94.0	85.4	102.2
NC(=O)NCC(=O)N1CCN(c2c(F)c(F)c(F)c(F)c2F)CC1	-23.0	87.3	95.0	x
Cc1ccc2onc(CC(=O)Nc3cccc(C(F)(F)F)c3)c2c1	2.8	95.7	103.6	98.6
COc1cc(CNCCSc2nnnn2C)ccc1OCc1ccc(C)cc1	-12.8	118.2	87.7	107.9
CCc1nnc(NC(=O)c2cc(=O)c3cc(C)c(C)cc3o2)s1	-63.6	85.4	76.3	98.8
OCCOc1ccc(Cl)cc1Cl	-22.2	105.0	86.4	97.0
COc1ccc(Cn2c(=O)n(-c3ccc(C)cc3)c(=O)c3c2c2cc(C)ccc2n3C)cc1	x	93.0	106.4	106.9
CC(Cc1ccco1)NC(=O)c1ccc(C(F)(F)F)cc1 (configuration not stated)	-24.4	87.2	92.8	x
CCC(=O)Nc1ccc2nc(SCCOc3ccc(C)cc3)sc2c1	-9.5	105.1	94.3	102.1
C=C(C)CN1C(=O)C(O)(c2c[nH]c3ccccc23)c2ccccc21 (configuration not stated)	9.8	91.3	95.1	106.9

Part of the list above, limited to HCMV NEC inh, Sa growth 42C second temp and GIV Gai3 FP.
molecule	HCMV NEC inh	Sa growth 42C second temp	GIV Gai3 FP
O=C(O)c1cccnc1SC1CC(=O)N(c2ccccc2)C1=O (configuration not stated)	-7.9	x	101.9
O=C(NC1(c2ccccc2)CC1)N1CCN(c2ccccc2)CC1	-0.7	94.7	x
CSc1nn(Cc2cccc(C)c2)c(N)c1S(=O)(=O)c1ccccc1	x	95.5	108.2

The listing continues.
SMILES	HCMV NEC inh	Sa growth 42C	Sa growth 42C second temp	GIV Gai3 FP
CCc1ccc(NC(=O)CN2C(=O)c3cccc4cccc2c34)cc1	-38.1	108.8	94.2	105.3
COc1ccc(NC(=O)Nc2c(C)noc2-c2ccccc2)cc1	-5.5	95.8	88.2	107.1
CC1=C(C(=O)OC2CCCCCC2)C(c2cccc(OCc3ccccc3)c2)NC(=O)N1 (configuration not stated)	-9.8	x	x	102.1
COc1ccc(NC(=O)CCNc2c(N3CCCC3)c(=O)c2=O)cc1	12.3	x	x	104.7
COC(=O)c1cc(=O)n(C2CC2)c(=NC2CC2)s1	-5.9	102.0	87.6	98.9
Cc1cc(C)n(CC(=O)n2c3ccccc3c3ccccc32)n1	-10.9	105.3	79.4	100.8
CC1=C(C(=O)Nc2ccccc2C(=O)NCCc2ccco2)SCCO1	3.0	104.2	89.3	101.0
O=C(O)CCn1cc(/C=C2\SC(=S)NC2=O)c(-c2ccccc2)n1	-75.3	91.9	94.8	x
CNC(=O)c1cc(OC)ccc1Br	-0.3	94.2	95.7	103.7
COC(=O)c1c(C)[nH]c(C)c1/C=C1\C(=O)Nc2ccccc21	-9.4	88.7	77.1	103.8
O=C(CCc1nc2ccccc2[nH]1)Nc1ccccc1	1.1	100.3	90.2	101.8
Cc1cccn2c(=O)c(C(=O)NCc3cccc(F)c3)cnc12	x	79.2	89.5	95.8
O=C(Cn1c(-c2ccccc2)noc1=O)Nc1ccc(N2CCCCCC2)cc1	-4.8	127.2	66.1	103.4
CC(=O)Oc1c(-c2ccccc2)c(=O)n2c3c(cccc13)CC2	31.1	97.6	88.6	100.9
N#Cc1ccc2ccn(CC(=O)NCCc3ccccc3)c2c1	-15.7	99.0	81.2	98.6
COc1cccc(-c2cn3nc(C4CC4)sc3n2)c1	-13.4	x	x	98.2
CC1=C(C#N)C(Nc2ccccn2)(C(F)(F)F)C(=O)N1 (configuration not stated)	-7.4	91.3	91.5	103.8
CCOC(=O)/C=C(\C)Nc1cc(-c2ccc(Cl)cc2)[nH]n1	-10.4	116.0	93.1	98.1
CCCN1CCN(c2ncnc3sc(C(=O)NC)c(C)c23)CC1	-41.3	x	x	100.6
O=C(c1ccc(Br)cc1)N1CCC(Cc2ccccc2)CC1	-7.1	82.7	104.8	x
CCCSc1oc(-c2ccccc2)nc1S(=O)(=O)c1ccccc1	2.7	98.6	90.8	101.6
CCCCCOC(=O)c1ccc(NC2=NS(=O)(=O)c3ccccc32)cc1	-4.6	x	x	103.7
Cc1[nH]c(C(=O)N2CCC(CC(=O)NC3CCCCCC3)CC2)c(C)c1C	9.0	x	x	103.7
OC(COc1ccccc1)Cn1c(Cc2ccc(Cl)cc2)nc2ccccc21 (configuration not stated)	-11.3	x	x	104.8
COc1ccccc1NC(=O)CCS(=O)(=O)c1cc2c3c(c1)CCN3C(=O)CC2	x	96.4	83.9	102.7
CC(NC(=O)C(C)(C)C)C(c1cccs1)N1CCOCC1 (configuration not stated)	-23.3	88.9	86.9	101.1
O=c1oc2cc3occ(-c4ccccc4)c3cc2c2ccccc12	x	91.3	85.7	103.2
O=C1CCCC1C1Sc2ccccc2NC1=O (configuration not stated)	-10.9	73.0	90.8	x
COc1ccccc1NC(=S)NC(=O)C(C)C	-13.3	106.5	113.1	105.2
CN(C)c1ccc(-c2nc3cc(NC(=O)c4cc([N+](=O)[O-])ccc4Br)ccc3o2)cc1	-16.1	x	x	100.7
CC1CCN(CN2C(=O)c3ccccc3C2=O)CC1	-27.7	110.3	108.1	102.7
Cc1ccc(NS(=O)(=O)c2cc3[nH]c(=O)c(=O)[nH]c3cc2C)cc1N(C)C	x	142.8	94.4	108.7
Cc1nn(-c2ccc(N3CCCCC3)nn2)c(C)c1CCC(=O)Nc1ccc(F)cc1F	x	105.9	97.1	104.8
COc1ccc(/C(C#N)=C/c2cn[nH]c2)cc1	-52.9	91.6	86.1	101.1
CCOc1ccc(S(=O)(=O)N(CC(=O)Nc2ccc(CC#N)cc2)c2ccccc2)cc1	-13.3	89.9	85.9	95.5
O=C(c1ccc2c(c1)CCCN2S(=O)(=O)c1ccc(Cl)cc1)N1CCN(c2ccccc2)CC1	-23.5	x	x	103.0
COc1cc(OC)c(NC(=O)c2nc(Nc3ccccc3)c3ccccc3n2)cc1Cl	4.6	x	x	102.2
CCCNC(=O)c1c(-c2ccccc2)nc2n1CCS2(=O)=O	6.5	x	x	96.3
Cc1ccccc1NC(=O)NCCc1c[nH]c2ccccc12	-24.3&-22.5	78.6	86.9	97.6&101.1
Cc1cc2n(n1)C(c1cccs1)Nc1ccccc1-2 (configuration not stated)	x	89.0	81.9	95.7
COC(=O)c1ccc(NC(=O)CSc2nc(C)cc(C)c2C(=O)Nc2ccccc2)cc1	-14.9	99.5	94.9	102.0
CC(=O)Nc1ccccc1-c1nnc(SCC(=O)Nc2ccccc2)[nH]c1=O	5.8	x	x	101.5
CC(=O)Nc1ccc(-c2nnc3n(CC(C)C)c(=O)c4ccccc4n23)cc1	-12.1	115.1	89.7	96.0
O=C(/C=N/O)Nc1ccccc1C(=O)O	0.3	85.0	90.2	x
CC(C)Oc1ccc(C(=O)N(CN2CCCC2=O)c2ccc(F)cc2)cc1	-35.4	96.6	87.6	105.9

A section of the results above:
SMILES	HCMV NEC inh	Sa growth 42C	Sa growth 42C second temp	GIV Gai3 FP
Cc1nn(-c2ccc(N3CCCCC3)nn2)c(C)c1CCC(=O)Nc1ccc(F)cc1F	x	105.9	97.1	104.8
COc1ccc(/C(C#N)=C/c2cn[nH]c2)cc1	-52.9	91.6	86.1	101.1

Later entries.
SMILES	HCMV NEC inh	Sa growth 42C	Sa growth 42C second temp	GIV Gai3 FP
CCc1ncc(C(=O)Nc2ccc(OC)c(OC)c2)c(C)n1	8.6	x	x	107.3
CSc1nc(N)cc(N)n1	-3.1	100.8	80.7	96.8
O=C(NCc1ccc(F)cc1)c1c2c(nc3ccccc13)C(=O)N(C1CCCCC1)C2	x	86.1	90.9	98.2
COc1ccc(CC(=O)Nc2ccc(N3CCN(c4ccc(OC)cc4)CC3)c(C#N)c2)cc1	-11.6	118.7	93.7	107.9
Cc1nnc(SCc2cc(=O)n3[nH]cnc3n2)s1	-2.2	85.7	93.7	100.4
CCOC(=O)c1cccnc1SCC(=O)N(C)c1ccccc1	-5.7	86.2	81.9	98.9
C=CCNC(=O)CN1C(=O)c2ccccc2S1(=O)=O	-3.6	95.2	91.7	99.9
O=C(Nc1cccc(C(F)(F)F)c1)c1cc(S(=O)(=O)N2CCCC2)c[nH]1	x	109.3	88.2	109.3
CCN(Cc1ccncc1)C(=O)c1cc(=O)c2ccccc2o1	-27.4	101.2	90.2	x
Nc1c(C(=O)N2CCc3ccccc3C2)sc(=S)n1-c1ccccc1	3.7	108.2	89.7	99.5
CCOc1ccc(CNCc2c(C(=O)O)n(Cc3ccccc3F)c3cc(OC)ccc23)cc1	x	100.9	93.8	109.2
C=CCNc1oc(-c2ccc(S(=O)(=O)N3CCCCC3)cc2)nc1C#N	-15.9	x	x	100.8
Cc1oc(-c2ccccc2F)nc1CSc1nnc(C)n2c1cc1occc12	x	101.0	94.0	108.8
CC(C)=NNC(=O)COc1ccccc1	0.2	98.2	102.6	x

Screening data from PubChem.
